Bioassay records (PubChem BioAssay)
Menin-MLL FL inh – displaces fluorescein MLL peptide from human menin; Fluorescence polarization, fluorescein-MLL peptide displacement from menin; FP activity change, % at 61.4 µM; AID 1766; 290,000 tested, under 10 active; inconclusive = falling polarisation curve, or a change in total fluorescence; inactive = total fluorescence flat and polarisation flat or rising; no compound was filed as active; the % refers to the polarisation; negative = inhibition;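 further: % of control where 0% means no effect; inhibitors lower the polarisation; unlabelled MLL peptide was the positive control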
gsp agonist – agonists of gsp mutant (McCune-Albright syndrome); 340,000 compounds, 0.13% hits; Potency, µM (titrated, usually from 76.9 µM), inactives show at the highest dose activation (cAMP increase), hits mostly activators; gsp mutant cells, cAMP HTRF, 30 min; control for the full effect not named in the record; active = well fitted activation curve with a large enough effect; inconclusive = small, poorly fitted or top-dose-only effect, or another doubt; inactive = no such curve, though single readings can be large or run the other way; cell line not stated here;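 further: phosphodiesterase inhibitor Ro 20-1724 added with compounds to block cAMP breakdown; potency means the concentration at half of the fitted maximal effect; nearly all actives have a fitted effect of over 60% in size; about a fifth of the inactives were tested at one dose only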
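Cells stably selected in G418 were plated at 2000/well, grown 16-24 hr, then given compounds in DMSO with the PDE inhibitor […] (300 uM solution added) for 30 min at 37C; cAMP was read by HTRF.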
TRPML1 inh – blocks the human TRPML1 channel; Q9GZU1; 390,000 compounds, 0.02% hits; TRPML1-inducible cells, Ca2+ dye fluorescence, FDSS; active compounds read low; inhibition of EC80 agonist-evoked calcium signal; activity change, negative = inhibition, % (concentration not given with the values); in the data active means activity change below about -50%; inconclusive means about -30% to -50%; inactive means above about -30%;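 further: stimulus is agonist 54-4 at its EC80 concentration; on the % scale 0 is the no-effect control and ±100 the full control effect; the text of the record puts the active cut at -80%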
Target sequence (Q9GZU1 whole entry, looked up): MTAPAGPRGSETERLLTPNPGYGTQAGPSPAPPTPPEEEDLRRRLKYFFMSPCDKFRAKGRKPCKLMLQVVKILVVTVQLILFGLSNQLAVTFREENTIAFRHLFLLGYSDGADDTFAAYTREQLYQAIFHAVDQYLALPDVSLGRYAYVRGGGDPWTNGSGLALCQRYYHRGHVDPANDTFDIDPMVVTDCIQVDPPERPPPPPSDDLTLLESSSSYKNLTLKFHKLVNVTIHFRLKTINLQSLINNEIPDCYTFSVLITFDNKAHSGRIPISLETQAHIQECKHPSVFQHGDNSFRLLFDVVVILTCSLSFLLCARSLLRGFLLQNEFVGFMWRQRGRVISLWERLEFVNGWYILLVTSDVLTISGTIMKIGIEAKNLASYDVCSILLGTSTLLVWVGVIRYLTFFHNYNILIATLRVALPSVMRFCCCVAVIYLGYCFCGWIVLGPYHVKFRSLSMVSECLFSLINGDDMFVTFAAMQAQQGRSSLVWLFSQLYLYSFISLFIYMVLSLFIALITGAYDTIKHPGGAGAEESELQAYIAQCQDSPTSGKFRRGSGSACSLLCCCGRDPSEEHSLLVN
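Tet-induced TRPML1-DL cells loaded with Ca8 no-wash calcium dye were read kinetically on FDSS. Compound addition was followed by EC80 agonist 54-4 (4 uM final); inhibition was read over 110 s.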
ClpP mod – qHTS Assay for Activators of ClpP. purified B. subtilis ClpP, FRET peptide cleavage, 20 min. Potency, µM (top dose mostly 57.5 µM), for the others: top-dose activity change, negative = active. 340,000 compounds, 1.9% hits. AID 651965, 2013; active = well fitted falling curve with a large enough effect; inconclusive = small, poorly fitted or top-dose-only effect; inactive = no such curve, though single readings can be large or run the other way; further: potency means the concentration at half of the fitted maximal effect; the source files actives as falling curves though it sought activators and does not explain the sign; nearly all actives have a fitted effect of over 65% in size; many hits overshoot -100%
Target sequence (P80244 whole entry, looked up): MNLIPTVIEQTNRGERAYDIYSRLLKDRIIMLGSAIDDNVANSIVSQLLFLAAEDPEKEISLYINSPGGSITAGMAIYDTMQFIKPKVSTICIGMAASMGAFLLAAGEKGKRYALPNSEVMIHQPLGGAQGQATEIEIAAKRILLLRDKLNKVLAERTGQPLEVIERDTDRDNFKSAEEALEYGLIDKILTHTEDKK
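Buffer: 100 mM Tris/HCl pH8, 100 mM KCl, 0.05% low protease BSA, 2.5% glycerol, 0.01% Tween-20. ClpP 10 microg/mL final; 20 min RT; delta FRET normalized to ADEP and DMSO controls.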
gsp antag – antagonists of gsp mutant (McCune-Albright syndrome) | gsp-mutant cells, cAMP HTRF, 30 min; control for the full effect not named in the record | Potency, µM (doses to about 76.9 µM), for inactives: at the highest dose activity change, negative = inhibition, most hits filed as inhibitors | 340,000 compounds, 0.4% hits | AID 624288; active = falling curve of any shape with a large fitted effect; inconclusive = falling curve, mostly with a smaller effect; inactive = flat or rising curve; cell line not stated here;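 further: intracellular cAMP measured with PDE inhibitor Ro 20-1724 present during compound exposure; potency means the concentration at half of the fitted maximal effect; on the % scale 0 is the no-effect control and ±100 the full control effect; nearly all actives have a fitted effect of over 65% in size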
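Cells, 2000/well, grown 16–24 h in DMEM 10% FBS with 0.5 mg/ml G418, then compounds plus […] (300 uM addition stock), 30 min at 37C. cAMP read by HTRF (cAMP-d2 and anti-cAMP antibody-K in lysis buffer) after 30 min RT.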
TRPML1 agonist – agonists of human TRPML1 channel; 410,000 compounds, 0.12% hits; TRPML1-expressing cells, Ca2+ dye fluorescence, FDSS; host cell line not named in the record; reference of the full effect not given here; activation, % (concentration not given with the values); AID 624414; Q9GZU1; in the data active = activation above about 50%; inconclusive = about 30% to 50%; inactive = below about 30%; further: 0% is about no effect; the text of the record puts the active cut at 80%
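Kinetic FDSS Ca2+ read in Tet-induced TRPML1-DL cells (ABD Ca8 dye plus quencher, 45-90 min RT loading): baseline, then compound, then 110 s agonist window; EC80 agonist 54-4 at 4uM final added afterwards for a 110 s antagonist window.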
* marks the source's active call; other numbers are inactive results; u = inconclusive; x = not tested or not shown; & = joins results of further samples; [ ] = dose if it differs, or a comment. Compounds as they come, and some 2.1% of all compounds hit somewhere here.

Structure	Menin-MLL FL inh	gsp agonist	TRPML1 inh	ClpP mod	gsp antag	TRPML1 agonist
Cc1noc(C)c1C(=O)NC(Cc1c[nH]c2ccccc12)C(=O)O (stereo not drawn)	x	-9%	3	x	9%	-0.4
[N-]=[N+]=NC[C@H](Cc1ccccc1)N1CC[C@@H](NC(=O)OCc2ccccc2)CCC1=O	-1.2	u	7	-3.0%	-9%	0.1
Cc1ccc(N2C(=O)N(CC(=O)Nc3ccc(C)c(C)c3[N+](=O)[O-])C(=O)C2C)cc1 (stereo not drawn)	0.9	-2%[15.4 µM]	65	x	9%	-0.4
COc1cccc(C(=O)Nc2ccc3nc(SCCOc4ccccc4)sc3c2)c1	x	x	-26	3.9%	x	0.3
CCOC(=O)Cc1csc(NC(=O)c2ccc(C)c(S(=O)(=O)N3CCOCC3)c2)n1	x	5%	33	-2.1%	-21%	3.4
O=C(Cc1csc2ccccc12)NCc1cccc(Br)c1	x	x	11	-3.8%	x	2.6
C=CCCCCCCCCc1nc(=S)[nH][nH]1	-4.9	8%	20	1.8%	3%	1.8
Cc1ccc(CSC2=Nc3ccccc3C3=NC(CC(=O)NCc4ccc5c(c4)OCO5)C(=O)N23)cc1 (stereo not drawn)	x	x	45	-6.6%	x	3.4
COc1ccc(S(=O)(=O)N2CCC(O)(c3ccc(Cl)cc3)CC2)cc1OC	-1.2	-19%[15.4 µM]	1	x	1%	-1.2
CNC(=O)c1ccsc1NC(=O)C1CCCN1S(=O)(=O)c1cccs1 (stereo not drawn)	x	22%[15.4 µM]	-8	x	17%	-0.4
CCCCC1(CO)C(=O)N(c2ccccc2)N(c2ccccc2)C1=O	-0.4	-11%	-20	x	2%	-0.3
Cc1ccc2nc(NC(=O)c3ccc(Cn4cc(Cl)cn4)o3)sc2c1	4.6	-18%	-7	94%	-28%	1.0
O=C(NCc1cccnc1)c1ccc(COc2ccc3c(c2)CCC3)o1	-3.3	-20%	-11	0.0%	u	2.4
CCN(C[C@H]1N[C@@](CC)(C(=O)OC)[C@H]2C(=O)N(C)C(=O)[C@@H]12)S(=O)(=O)c1ccc(OC(F)(F)F)cc1	x	x	-2	-0.5%	-3%	-0.2
Nc1nc(Nc2ccccc2)nc(NCCO)c1[N+](=O)[O-]	-1.8	12%	-4	0.0%	9%	0.3

Reprinted from the part before: four entries, followed by the next part.
Structure	Menin-MLL FL inh	gsp agonist	TRPML1 inh	ClpP mod	gsp antag	TRPML1 agonist
Cc1ccc2nc(NC(=O)c3ccc(Cn4cc(Cl)cn4)o3)sc2c1	4.6	-18%	-7	94%	-28%	1.0
O=C(NCc1cccnc1)c1ccc(COc2ccc3c(c2)CCC3)o1	-3.3	-20%	-11	0.0%	u	2.4
CCN(C[C@H]1N[C@@](CC)(C(=O)OC)[C@H]2C(=O)N(C)C(=O)[C@@H]12)S(=O)(=O)c1ccc(OC(F)(F)F)cc1	x	x	-2	-0.5%	-3%	-0.2
Nc1nc(Nc2ccccc2)nc(NCCO)c1[N+](=O)[O-]	-1.8	12%	-4	0.0%	9%	0.3
CN1CCN(C(CNC(=O)C(=O)Nc2cccc(Cl)c2)c2ccc3c(c2)OCO3)CC1 (stereo not drawn)	x	x	18	-1.6%	x	1.3
Cc1nc(Cl)sc1C(=O)O	4.3	-31%[inhibitor]	3	u	12%	0.1
COc1ccc(Cn2ccnc2SCC(=O)NCc2ccccc2)cc1	x	x	31	-2.2%	x	1.9
O=S(=O)(Nc1ccc(Oc2ncccn2)c(Cl)c1)c1ccc(Cl)cc1	0.3	-29%[15.4 µM]	-12	1.1%	-27%	3.1
Cc1nc(-c2ccc(NC(=O)C3CCCCC3)cc2)cs1	2.5	-27%	-6	u	1%	-1.3
CCN1CC2([N+](=O)[O-])C=CC(=O)C([N+](=O)[O-])(C1)C2CC(=O)c1ccccc1 (stereo not drawn)	-1.6	-37%	14	-0.5%	-12%	-0.5
CCOC(=O)N1CCN(C(=O)Nc2ccc3oc(C)nc3c2)CC1	-2.2	-2%	-4	-2.3%	-3%	-0.1
COc1cc(C2c3c(-c4ccccc4O)n[nH]c3C(=O)N2Cc2ccco2)cc(OC)c1OC (stereo not drawn)	0.8	-25%	-2	-2.7%	-5%	2.1
N#CCc1c(C#N)c(N)nc(Nc2ccccc2)c1C#N	u	u	9	-3.3%	12%	0.0
CCn1nnnc1-c1ccc(OC)c(S(=O)(=O)Nc2ccc(OC)cc2)c1	-0.9	5%	-18	1.5%	1%	0.9
COc1ccc2[nH]c(C)c(CCNC(=S)Nc3cccc(C)c3C)c2c1	1.6	8%	8	-7.6%	-22%	0.0
Cc1cc(OCC(=O)NNC(=O)c2cccc(F)c2)ccc1Cl	x	u	-3	-0.2%	5%	-0.8
COc1ccc(N2CCN(C(=O)CCCn3c(=O)[nH]c4ccsc4c3=O)CC2)cc1	-4.0	-56%[inhibitor]	35	0.0%	-11%	-0.6
Cc1ccc(OCC(=O)Nc2ccc3c(c2)OCCO3)cc1C	-4.8	17%	8	x	-5%	1.8
CCn1c(C)cc(C=C2C(=O)c3ccccc3C2=O)c1C	8.1	2%[15.4 µM]	3	x	-9%	3.9
CC(=O)O/N=C(\N)Cc1ccc(-c2csnn2)cc1	12	7%	-9	1.3%	5%	-0.8
O=C(NNS(=O)(=O)c1ccccc1[N+](=O)[O-])c1cccc(Cl)c1	0.0	u	15	2.4%	13%	-0.6
CCOC(=O)C1CCN(C(=O)CCCn2c(=O)c3cccn3c3cccnc32)CC1	2.2	27%	-5	3.3%	-4%	0.4
O=C(COc1ccccc1[N+](=O)[O-])Nc1cccc(S(=O)(=O)NC2=NCCCCC2)c1	x	-71%[inhibitor]	17	-2.2%	-12%	-0.7
Cc1ccc(N2CCN(S(=O)(=O)c3c(C)nc4scc(C)n4c3=O)CC2)c(C)c1	x	-27%	-8	-12%	u	-1.1
CC(=O)c1cc2c(cc1NC(=O)Cc1ccsc1)OCO2	x	-24%	-7	-25%	-4%	0.0
CCCCC1(c2ccc(F)cc2)NC(=O)N(CC(=O)Nc2ccc(N3CCOCC3)cc2)C1=O (stereo not drawn)	x	17%	-18	-3.2%	-8%	10
Cc1nc(C(=O)Nc2ccc(Cl)cc2Cl)nn1-c1cc(OC(C)C)c(Cl)cc1Cl	-0.6	-7%	11	28µM*	3%	0.3
Cc1nc2scc(C)n2c(=O)c1S(=O)(=O)Nc1ccc(OC(F)(F)F)cc1	1.5	u	3	-2.9%	u	0.5
CC1(C)CC(=O)C/C(=N/NC(=O)COc2ccc(Cl)cc2Cl)C1	2.3	-7%[15.4 µM]	2	-2.6%	6%	0.4
O=S(=O)(Nc1ccc(Cl)cn1)c1ccc(F)cc1	-1.4	-25%	23	x	-4%	1.9
O=C(NCCc1csc(-c2cccnc2)n1)c1cccc(Cl)c1	1.1	-36%[inhibitor]	-20&4	u	-8%	1.1&1.1
Clc1ccc(-c2ncc3ccccn23)c(Cl)c1	27	u	6	x	0%	1.2
CCOC(=O)COc1ccsc1C(=O)OC	5.0	u	2	1.1%	0%	-0.3
CC(=O)Nc1ccc(OCc2cccc([N+](=O)[O-])c2)cc1	-0.7	11%[15.4 µM]	-2	x	1%	0.3
Cc1cc(C(=O)NNC(=O)NC(C)C)no1	2.3	3%[15.4 µM]	13	-3.3%	11%	-0.3
CCCn1c(CN2CCN(C(C)=O)CC2)nc2cc(S(=O)(=O)N(C)C)ccc21	4.7	1%	-8	x	4%	0.4
CC(C)C(=O)Nc1ccnc(-c2cccnc2)n1	-1.1	1%	3	-2.7%	-5%	-0.1
Cc1nc(Cl)c2oc3ccccc3c2n1	2.5	37%	-16	-25%	16%	0.4
NS(=O)(=O)c1ccc(NC(=O)CSc2nc3c(c(=O)[nH]2)CCCC3)cc1	-5.4	20%[15.4 µM]	15	x	-14%	0.1
COC(C(=O)NC(C(C)C)C(C)C)c1ccccc1 (stereo not drawn)	1.4	-55%[inhibitor]	3	-1.6%	5%	0.2
CN(Cc1ccccc1)S(=O)(=O)c1cn(C)cn1	u	10%[15.4 µM]	-1	-1.3%	-11%	-0.5
C=CCNC(=O)c1c(Cl)cnn1-c1ccc(C)cc1	2.0	-24%	-12	x	3%	0.0
O=C(CSc1nc(-c2ccccc2)c(-c2ccccc2)o1)N1CCOCC1	0.6	-1%	2	32µM*	1%[15.4 µM]	3.4
CCSc1nc2ccccc2c(=O)n1CCc1ccc(OC)c(OC)c1	2.6	u	7	-0.5%	-18%	3.6
CC(=O)Nc1cc(Cl)ccc1OS(=O)(=O)c1ccc(C)cc1	-1.7	12%[15.4 µM]	36	-1.6%	1%	0.1
O=C(CCCC(=O)OCC(=O)c1cccs1)Nc1ccc(Oc2ccccc2)cc1	7.8	2%	-4	-4.0%	-3%	-0.8
Nc1ccccc1OCCOCCOCCOc1ccccc1N	0.3	0%	3	-2.0%	7%	0.5
CC(C)(C)c1ccc(C(=O)Nc2cc(-c3nc4ccccc4o3)ccc2Cl)cc1	x	x	5	u	x	1.6
CCOC(=O)N1CCC(Nc2c(NCCCN(CC)CC)c(=O)c2=O)CC1	1.4	-4%	25	-0.2%	2%	-0.4
CCn1cc([N+](=O)[O-])c(C(=O)Nc2c(C)nn(Cc3cccc(F)c3)c2C)n1	1.2	-22%	-7	-10%	3%	0.2
O=C1NC2(CCCCCC2)C(=O)N1Cc1cccc([N+](=O)[O-])c1	1.4	21%	9	x	10%	-0.3
Cc1c(/C=N/NC(=O)CNc2ccccc2)c2ccccn2c1C(=O)c1ccncc1	-1.7	22%[15.4 µM]	21	0.3%	-1%	-0.4
CC(Sc1nc(=O)cc(N)n1CCc1ccccc1)C(=O)NCc1ccccc1 (stereo not drawn)	4.9	17%[15.4 µM]	12	x	2%	-0.3
CCOC(=O)c1nnn(-c2nonc2N)c1CS(=O)(=O)c1ccccc1	-1.9	-8%	-11	2.7%	0%	0.9
O=C(CCn1c(=S)[nH]c2cc3c(cc2c1=O)OCO3)NCCc1ccccc1Cl	x	-37%[inhibitor]	-8	-5.3%	x	-0.7
COc1cccc2cc(C(=O)N3CCN(c4ncccn4)CC3)c(=O)oc12	-3.4	-10%	-8	-1.5%	11%	-0.1
